Screening data deposited in PubChem BioAssay by several laboratories.
Mtb bLac sens = beta-lactam sensitization of Mtb H37Rv; inhibition, % at 25 µM; M. tuberculosis H37Rv growth with meropenem, percent inhibition; hits of this screen are not shown here; 330,000 compounds, 0.27% hits;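 active = about 74% or more and at least 40 points above the plate without the antibiotic, then above 30% in a dose series; inconclusive = first-round hits that could not be retested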;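 note: growth measured after seven days incubation then overnight dye step; 0% = bacteria only wells and 100% = bacteria with antibiotic; twin plates without the antibiotic show which effects depend on it; some results filed as inactive read as strong as hits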
RecA splice inh = Mtb RecA intein splicing inhibition | P9WHJ3 | cell-free RecA intein splicing, fluorescence | inhibition, %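 (about 9 µM by stock and volumes)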 | 290,000 compounds, 0.75% hits; in the data active = inhibition above about 30%; inconclusive = no clear call, values can overlap the other calls;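 note: 0% = vehicle wells and 100% = reference inhibitor control wells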
Target sequence (P9WHJ3 whole entry, looked up, canonical isoform): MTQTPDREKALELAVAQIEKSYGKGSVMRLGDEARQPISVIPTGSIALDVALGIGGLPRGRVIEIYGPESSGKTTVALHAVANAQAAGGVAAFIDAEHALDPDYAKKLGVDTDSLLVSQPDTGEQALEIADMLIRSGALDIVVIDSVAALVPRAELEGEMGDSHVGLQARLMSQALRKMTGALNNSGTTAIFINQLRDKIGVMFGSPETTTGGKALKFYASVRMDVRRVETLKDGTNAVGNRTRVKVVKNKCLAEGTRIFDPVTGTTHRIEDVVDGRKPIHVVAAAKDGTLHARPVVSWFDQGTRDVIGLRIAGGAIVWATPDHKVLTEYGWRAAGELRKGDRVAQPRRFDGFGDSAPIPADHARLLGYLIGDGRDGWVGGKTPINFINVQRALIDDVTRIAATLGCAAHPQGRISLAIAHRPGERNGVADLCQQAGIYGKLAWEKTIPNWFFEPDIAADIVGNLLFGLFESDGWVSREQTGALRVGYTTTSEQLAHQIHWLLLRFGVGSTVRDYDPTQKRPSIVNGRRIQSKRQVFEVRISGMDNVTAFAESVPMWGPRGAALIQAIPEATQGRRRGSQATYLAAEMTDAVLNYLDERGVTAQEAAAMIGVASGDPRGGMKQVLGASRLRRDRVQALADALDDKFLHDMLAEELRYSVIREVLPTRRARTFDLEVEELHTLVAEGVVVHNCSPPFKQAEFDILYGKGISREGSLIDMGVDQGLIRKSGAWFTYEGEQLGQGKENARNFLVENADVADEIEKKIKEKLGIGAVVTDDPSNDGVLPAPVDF
Mtb growth = M. tuberculosis H37Rv growth inhibitors, H37Rv strain (AID 1626). M. tuberculosis H37Rv growth inhibition; higher % means a stronger effect. inhibition, % at 10 µM, or IC50 in µM where a hit was titrated. 220,000 compounds, 0.95% hits;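 active = confirmed in a dose series; inconclusive = inhibition above 80% but not taken into the dose series; inactive = below 80% or under 30% at every dose of the series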;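 note: bacteria incubated seven days before Alamar blue readout; 0% = bacteria only wells and 100% = bacteria with antibiotic wells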
Arbovirus inh = arbovirus infection inhibition. arbovirus infection cell-based antiviral screen. inhibition, % at 10 µM. AID 1251. 200,000 compounds, 0.37% hits;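 active = inhibition from about 30%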;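 note: bluetongue infection of BSR cells; cell survival read as ATP light after 72 h; 0% = infected wells without compound and 100% = uninfected wells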
YopH inh = YopH (Yersinia) phosphatase inhibition; 140,000 compounds, 0.16% hits; inhibition, %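 (about 10 µM by stock and volumes)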; fluorescence Ex485/Em525; AID 898;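 active = inhibition of 50% or more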;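 note: controls were vehicle for no effect and minimum signal wells for full effect; inactives centre near -20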
An asterisk follows results filed as active; u = inconclusive; x = not tested or not shown. The list is partial; the hit share may differ from the screen's.

1) CCC(C(=O)Nc1cc(C(=O)Nc2cc(C)ccn2)ccc1Cl)c1ccccc1 (configuration not stated)
2) COC(=O)CSc1nnc(-c2cccs2)n1-c1ccc(Cl)cc1
3) Cc1ccc(/C=C/C(=O)NC2=NCCS2)cc1
4) COc1ccccc1CN=c1c([N+](=O)[O-])nn(-c2ccc3c(c2)OCCO3)n1O
5) O=C(O)c1cccc(S(=O)(=O)N2CCN(C(c3ccccc3)c3ccccc3)CC2)c1
6) COc1cc(SC)ccc1C(=O)OCC(=O)NC1CCCC1
assay / entry,1,2,3,4,5,6
Arbovirus inh,-3,-2,9,-24,15,2
Mtb growth,15%,-6%,9%,13%,4%,8%
Mtb bLac sens,-1,-3,1,94,3,5
YopH inh,-18,-10,-14,-33,x,x
RecA splice inh,-3.0,1.0,-2.6,5.7,2.8,-0.5

7) CN(C)CC(O)CN1C(=O)N(CN2C(=O)N(CC(O)CN(C)C)C(=O)C2(C)C)C(C)(C)C1=O (configuration not stated)
8) O=C(Cc1noc2ccccc12)Nc1ccc2ccccc2c1
9) COc1ccc(CNC(=O)Nc2cccc3ccccc23)cc1
10) CCc1nnc(NC(=O)CN2CCN(C(=O)c3ccccc3)CC2)s1
11) CCOc1ccc(CN(C)CC(=O)Nc2ccc([N+](=O)[O-])cc2Cl)cc1
12) CCc1ccccc1NC(=O)C1CC(c2ccc(OC)cc2)=NO1 (configuration not stated)
assay / entry,7,8,9,10,11,12
Arbovirus inh,-3,-7,-11,1,5,x
Mtb growth,-8%,51%,-4%,-7%,4%,x
Mtb bLac sens,-1,34,-17,0,-4,-3
YopH inh,x,-21,-24,x,-22,x
RecA splice inh,2.2,0.5,-0.1,x,0.4,0.1

13) Cc1cc(NC(=O)CSc2ccc(-c3nc4cc(C)c(C)cc4[nH]3)cn2)no1
14) COC(=O)c1c(-c2cccnc2)csc1NC(=O)c1cc(C)on1
15) Cn1cc(Cl)c(C(=O)OCC(=O)c2ccccc2)n1
16) CCc1ccc(C(=O)NNC(=O)CCC2CCCCC2)cc1
17) O=C(NC1CCCC1)C1CCCN(S(=O)(=O)c2cnc[nH]2)C1 (configuration not stated)
18) COc1cccc(NC(=O)c2ccc(NC(=O)C3CC(=O)OC34CCCCC4)cc2)c1 (configuration not stated)
assay / entry,13,14,15,16,17,18
Arbovirus inh,-9,-15,x,x,2,-2
Mtb growth,1%,15%,x,x,-5%,0%
Mtb bLac sens,39,96,1,-5,-4,1
YopH inh,-37,-17,x,x,-46,x
RecA splice inh,0.4,-2.0,5.3,0.5,-2.0,-2.4

19) CCOC(=O)C1CCN(Cc2cnc(NC(=O)OC)s2)CC1
20) Cc1ccc2cccc(NS(=O)(=O)c3ccccc3)c2n1
21) O=C1CC(c2ccc(Br)cc2)NC(c2ccc(Br)cc2)C1c1ccccc1 (configuration not stated)
22) O=C(CNCc1cccnc1)Nc1cc(C(F)(F)F)ccc1N1CCOCC1
23) O=C(O)CCC(NC(=O)c1ccc(Cl)cc1)C(=O)O (configuration not stated)
24) CSC1=N/C(=C\c2cccc(Cl)c2)C(=O)N1N(C)C
assay / entry,19,20,21,22,23,24
Arbovirus inh,-4,x,45*,x,-6,x
Mtb growth,-3%,x,15%,-5%,-14%,11%
Mtb bLac sens,3,20,1,-7,-1,5
YopH inh,-9,x,-46,x,x,x
RecA splice inh,-2.8,6.6,5.4,-1.4,0.5,-0.4

25) CC1=NN(C(=O)c2c(Br)cnn2C)C(O)(C(F)(F)F)C1 (configuration not stated)
26) CCN(CC)C(=O)CSc1nc(-c2ccccc2)cc(=O)[nH]1
27) CCOc1ccccc1CN1CCN(C2CCOCC2)CC1CCO (configuration not stated)
28) CCOc1ccc(NC(=O)Nc2nnc(CC(=O)NCc3ccccc3)s2)cc1
29) CSc1ncc(Cl)c(C(=O)NCc2cccnc2)n1
30) C=CCc1ccc(OCCCN2CCCC(C)C2)c(OC)c1 (configuration not stated)
assay / entry,25,26,27,28,29,30
Arbovirus inh,0,-1,4,-6,x,-17
Mtb growth,11%,10%,10%,-2%,x,7%
Mtb bLac sens,11,-2,-13,4,-3,-7
YopH inh,-86,x,x,x,x,0
RecA splice inh,-0.3,1.7,0.2,x,-2.8,-1.3

31) Cc1ccc(OCC(=O)Nc2nnc(S(=O)(=O)N3CCCCC3)s2)cc1
32) CC1CC1C(=O)N(C)CC(=O)Nc1ccc(Cl)c(C(F)(F)F)c1 (configuration not stated)
33) O=C(O)CN1C(=O)/C(=C\c2ccccc2OCc2ccc(Cl)cc2Cl)SC1=S
34) O=C(CSc1ccccn1)Nc1nc2ccc(Br)cc2s1
35) C=CCn1c(SCC(=O)N(CC)C2CCS(=O)(=O)C2)nc2ccccc2c1=O (configuration not stated)
36) CCC(=O)Nc1ccc2c(c1)ncn2-c1ccccc1C
assay / entry,31,32,33,34,35,36
Arbovirus inh,x,x,x,-1,x,-6
Mtb growth,x,x,x,-3%,0%,7%
Mtb bLac sens,1,3,2,-2,2,-7
YopH inh,x,x,x,-39,x,x
RecA splice inh,2.0,-1.2,8.1,2.6,0.0,0.3

37) Fc1ccc(-c2csc(Nc3ccccn3)n2)c(F)c1
38) CN(Cc1ccccc1)C(=O)c1ccc2c(c1)OCO2
39) COc1cc(/C=N/Nc2nc3ccccc3[nH]2)cc(OC)c1O
40) Cc1c(C(=O)N(C)C)c2cc(Cl)ccc2n1O
41) Cc1sc2nc(-c3cccs3)oc(=O)c2c1C
42) COc1cc(Cl)c(C)cc1NC(=O)COC(=O)CCc1nc2ccccc2c(=O)[nH]1
assay / entry,37,38,39,40,41,42
Arbovirus inh,x,-8,6,1,x,x
Mtb growth,x,-1%,6%,2%,x,x
Mtb bLac sens,11,u,3,2,41,-7
YopH inh,x,-18,-27,-44,x,x
RecA splice inh,0.0,-6.5,9.0,-4.9,-50,-2.6

43) COc1ccc2[nH]c(=O)c(CN(CCCN3CCOCC3)C(=O)NCc3ccccc3)cc2c1
44) O=C(NCCc1nc2ccccc2[nH]1)/C(=C/c1ccc2c(c1)OCO2)NC(=O)c1ccc(Cl)cc1Cl
45) COc1cc(CCC(=O)N2CCN(c3ccccc3Cl)CC2)cc(OC)c1OC
46) CC(=O)c1cccc(N(CC(=O)N2CCCCC2)S(C)(=O)=O)c1
47) COc1cccc(OC)c1C(=O)NCC12CC3CC(C1)CC(CNC(=O)c1c(OC)cccc1OC)(C3)C2
48) COc1ccc(Cl)cc1-c1csc(N)n1
assay / entry,43,44,45,46,47,48
Arbovirus inh,4,-32,x,10,x,-15
Mtb growth,6%,21µM*,x,2%,x,-3%
Mtb bLac sens,-11,92,0,0,-8,-1
YopH inh,-29,-5,x,-15,x,x
RecA splice inh,2.2,3.3,1.3,-1.2,-0.6,x

49) O=C(O)c1cc(S(=O)(=O)N2CCCCC2)ccc1Cl
50) C=CCN(C(=O)CNC(=O)c1ccco1)C(C(=O)NC1CCCCC1)c1cccnc1 (configuration not stated)
51) CC(Sc1nc(N2CCOCC2)c2c(c1C#N)CC(C)(C)OC2)C(=O)Nc1ccccc1 (configuration not stated)
52) CC1CCCCN1C(=O)C1CCCN(S(=O)(=O)c2cccc3nsnc23)C1 (configuration not stated)
53) Cc1ccccc1CN1C(=O)c2ccccc2S1(=O)=O
54) CC(NC1CCCCC1)C(=O)NN=C(c1ccccc1)c1ccccc1 (configuration not stated)
assay / entry,49,50,51,52,53,54
Arbovirus inh,x,x,-11,x,x,-11
Mtb growth,x,x,6%,x,x,6%
Mtb bLac sens,-5,-4,x,-3,5,-2
YopH inh,x,x,-14,x,x,x
RecA splice inh,-1.2,-1.5,-0.4,0.0,1.9,-0.2

55) CC(C)N(Cc1ccccc1)C(=O)COC(=O)C1CCN(S(=O)(=O)c2ccc3c(c2)OCCO3)CC1
56) CC1(C)Cc2c(sc3nnn(CC(=O)Nc4ccccc4)c(=O)c23)CO1
57) CSc1nc2nccc(-c3ccc(Oc4ccccc4)cc3)n2n1
58) COc1ccccc1NC(C)C(=O)Nc1ccc(C(C)=O)cc1 (configuration not stated)
59) FC(F)(F)c1cc(-c2cccs2)nc(-n2cc(Br)cn2)n1
60) CCN(CC)S(=O)(=O)c1cccc(NC(=O)COC(=O)c2n[nH]c(=O)c3ccccc23)c1
assay / entry,55,56,57,58,59,60
Arbovirus inh,x,x,-13,-2,-10,17
Mtb growth,x,-2%,15%,4%,2%,-1%
Mtb bLac sens,0,-5,66,7,0,-3
YopH inh,x,x,-12,-23,-43,x
RecA splice inh,-0.8,-1.4,x,-0.2,-2.4,1.0

Three structures from above, ordered by heavy-atom count, lowest first:
3) Cc1ccc(/C=C/C(=O)NC2=NCCS2)cc1
58) COc1ccccc1NC(C)C(=O)Nc1ccc(C(C)=O)cc1 (configuration not stated)
18) COc1cccc(NC(=O)c2ccc(NC(=O)C3CC(=O)OC34CCCCC4)cc2)c1 (configuration not stated)
assay / entry,3,58,18
Arbovirus inh,9,-2,-2
Mtb growth,9%,4%,0%
Mtb bLac sens,1,7,1
YopH inh,-14,-23,x
RecA splice inh,-2.6,-0.2,-2.4

Later entries.
61) COc1cc(OC)c2cc(C(=O)N/N=C/c3ccccc3O)[nH]c2c1
62) Cc1cc2nc(SCC(=O)N(C)C)c3c(c2cc1C)CCCC3
63) O=[N+]([O-])c1cccc(/C=N/n2c(COc3ccccc3)n[nH]c2=S)c1
64) O=c1[nH]c2ccccc2n1CCC1CCCCC1
65) COC(=O)c1ccc(C(=O)OC)c(NC(=O)CN2CCC(C)CC2)c1
66) Cc1ccc(C(=O)NCC(=O)OCC(=O)c2ccc3c(c2)NC(=O)CO3)cc1
assay / entry,61,62,63,64,65,66
Arbovirus inh,x,-11,12,1,-3,15
Mtb growth,x,3%,-3%,11%,-3%,0%
Mtb bLac sens,0,15,3,49,2,4
YopH inh,x,3,-25,-20,x,x
RecA splice inh,4.1,1.4,0.6,-1.0,0.1,8.0

67) O=C1NC2(CCCCCC2)C(=O)N1Cc1ccc(F)cc1Cl
68) Cn1c(N)c(C(=O)COC(=O)c2cc(-c3ccccc3)nc3ccccc23)c(=O)n(C)c1=O
69) O=C(O)/C=C/C(=O)N(Cc1ccccc1)Cc1ccco1
70) CSc1ccc(/C=N/NC(=O)COc2ccc(Br)cc2Cl)cc1
71) CCN(CC)C(=O)Cn1cc(S(=O)(=O)CC(=O)Nc2ccc(F)cc2)c2ccccc21
72) COC(=O)C(Cc1ccc(O)cc1)NC(=O)c1ccc2c(c1)OCCO2 (configuration not stated)
assay / entry,67,68,69,70,71,72
Arbovirus inh,x,x,-6,-2,x,x
Mtb growth,x,-6%,x,7%,x,x
Mtb bLac sens,-2,-2,-10,6,2,10
YopH inh,x,x,-24,-51,x,x
RecA splice inh,5.1,2.4,-6.5,1.6,2.6,1.7

73) CCN(CC)C(=O)c1sc(NC(=O)Cc2cccs2)c(C#N)c1C
74) COc1ccc(-n2nnc3c(=O)n(Cc4cc(C)ccc4C)cnc32)cc1
75) C#CCOCCOCCOCCNc1nc(N2CCN(C(=O)[C@H](Cc3cc4ccccc4[nH]3)n3cc([C@@H](N)CC(C)C)nn3)CC2)nc(N2CCN(C(=O)[C@H](Cc3cc4ccccc4[nH]3)n3cc([C@@H](N)CC(C)C)nn3)CC2)n1
76) CCCn1c(=O)c(-c2nc3ccccc3[nH]2)c(O)c2ccccc21
77) Cc1cccc(NC(=O)c2cc(N3C(=O)CCC3=O)ccc2Cl)n1
78) Cc1c(NC(=O)c2nn(C)c(=O)c3ccccc23)c(=O)n(-c2ccccc2)n1C
assay / entry,73,74,75,76,77,78
Arbovirus inh,-1,0,-11,-16,6,x
Mtb growth,-9%,0%,4.2µM*,23%,-9%,x
Mtb bLac sens,0,-5,99,28,-4,4
YopH inh,-5,-22,x,x,-3,-20
RecA splice inh,6.4,0.6,9.7,0.4,0.1,0.4

In the list so far, 8 have two or more sulfur atoms.
2) COC(=O)CSc1nnc(-c2cccs2)n1-c1ccc(Cl)cc1
31) Cc1ccc(OCC(=O)Nc2nnc(S(=O)(=O)N3CCCCC3)s2)cc1
33) O=C(O)CN1C(=O)/C(=C\c2ccccc2OCc2ccc(Cl)cc2Cl)SC1=S
34) O=C(CSc1ccccn1)Nc1nc2ccc(Br)cc2s1
35) C=CCn1c(SCC(=O)N(CC)C2CCS(=O)(=O)C2)nc2ccccc2c1=O (configuration not stated)
41) Cc1sc2nc(-c3cccs3)oc(=O)c2c1C
52) CC1CCCCN1C(=O)C1CCCN(S(=O)(=O)c2cccc3nsnc23)C1 (configuration not stated)
73) CCN(CC)C(=O)c1sc(NC(=O)Cc2cccs2)c(C#N)c1C
assay / entry,2,31,33,34,35,41,52,73
Arbovirus inh,-2,x,x,-1,x,x,x,-1
Mtb growth,-6%,x,x,-3%,0%,x,x,-9%
Mtb bLac sens,-3,1,2,-2,2,41,-3,0
YopH inh,-10,x,x,-39,x,x,x,-5
RecA splice inh,1.0,2.0,8.1,2.6,0.0,-50,0.0,6.4
